# Biofilm kill mix – clotrimazole potentiators killing C. albicans biofilm, primary screen, 4-compound mixtures. C. albicans biofilm persisters + clotrimazole, fluorescence viability; primary screen in compound mixtures of four per well. inhibition, % at 7.6 µM. 120,000 tested, 0.02% active. AID 1242, 2008;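 active = inhibition above 30.3% in the primary screen of four-compound pools, then above 30% when the compound was retested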;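 note: compounds exposed to preformed 24 h biofilms for 48 h; the number belongs to the whole pool; some results filed as inactive read as strong as hits; inactives centre near 12; 0% = biofilm with clotrimazole alone and 100% = kill control; retested singly at about 60 µM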
#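 Incubation: 24 h biofilm formation, then 48 h compound exposure, 37 °C | Material: C. albicans biofilms | Buffer or medium: RPMI/MOPS medium, pH 7.0 | Measured by: 2-h Alamar Blue fluorescence, 535/590 nm excitation/emission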
# Numbers without * were called inactive. Some of the compounds tested; count on the stated rates, not on these rows.
smiles	Biofilm kill mix
Cc1ccc(OCC(=O)Nc2cccc(S(=O)(=O)N3CCCCCC3)c2)c([N+](=O)[O-])n1	22
CCOC(=O)/C(C#N)=C/c1ccc(OC(=O)c2ccccn2)cc1	18
CCOc1ccc(C(=O)N2CCSC2=S)cc1	8
CCc1nc2ccccc2c(C(=O)OCC(=O)Nc2cccc(S(=O)(=O)NC3=NCCCCC3)c2)c1C	16
CCc1ccc(N/C(N)=N/c2nc(CSc3ccccn3)cc(=O)[nH]2)cc1	12
Cc1ccc(S(=O)(=O)N2CCCCC2C(=O)Nc2nncs2)cc1 (stereo not drawn)	20
CCN(CC)CC(O)Cn1c(-c2ccccc2Cl)nc2ccccc21 (stereo not drawn)	24
CC(=O)Nc1ccc(N=Nc2c(C)[nH]n(C(N)=S)c2=O)cc1	15

# Shown field by field: part of the list above.
> CCc1nc2ccccc2c(C(=O)OCC(=O)Nc2cccc(S(=O)(=O)NC3=NCCCCC3)c2)c1C
  Biofilm kill mix: 16
> CCc1ccc(N/C(N)=N/c2nc(CSc3ccccn3)cc(=O)[nH]2)cc1
  Biofilm kill mix: 12
> Cc1ccc(S(=O)(=O)N2CCCCC2C(=O)Nc2nncs2)cc1 (stereo not drawn)
  Biofilm kill mix: 20
> CCN(CC)CC(O)Cn1c(-c2ccccc2Cl)nc2ccccc21 (stereo not drawn)
  Biofilm kill mix: 24

# The list goes on:
smiles	Biofilm kill mix
Cc1cc(O)c(C(C)C)cc1N=Nc1ccccc1C(=O)O	8
CC(=O)N1CCC(N(CCN2CCOCC2)C(=S)Nc2cc(C)cc(C)c2)CC1	12
CCCC1CC(CSc2ncn[nH]2)OC1=O (stereo not drawn)	18
CC1(C)C2CCC1(C)C(OCCNCCOC(=O)Nc1ccccc1)C2 (stereo not drawn)	15
COc1ccc(OC)c(/C=N/NC(=O)c2cc3c(OC)cccc3[nH]2)c1	-2
CC(C)C(=O)NC(=S)Nc1ccc(S(=O)(=O)Nc2ccccc2)cc1	12
CC1(C)CN(c2ccc(Br)cc2Br)C1=O	-4
O=C(/C=C/c1ccc(S(=O)(=O)N2CCOCC2)cc1)NC(=S)Nc1ccc(Cl)cc1Cl	-30
CCOC(=O)C(C)Sc1nnc(CSc2nc3nc(C)cc(C)n3n2)o1 (stereo not drawn)	9
Cc1cc(/C=N/NC(=O)c2cccnc2)c(C)n1CC(C)C	14
COc1ccc(NC(=O)C(CC(=O)O)Cc2ccc(C)cc2)cc1 (stereo not drawn)	47
Cc1nc(C(Cl)(Cl)Cl)nc2[nH]ccc(=O)c12	-7
COc1ccc(NC(=S)N2CCC(N(C)CCN3CCOCC3)CC2)cc1Cl	15
COc1ccc(/C=N/NC(=O)c2ccc(N(C)S(=O)(=O)c3ccccc3)cc2)cc1	-5
O=C(Cn1cc(C(F)(F)F)ccc1=O)Nc1cccc(S(=O)(=O)N2CCOCC2)c1	17
CCN(CC)CCCN(Cc1cc2cc(OC)ccc2[nH]c1=O)C(=O)Nc1ccccc1	9

# Single values from the entries so far.
# For Biofilm kill mix, `COc1ccc(NC(=S)N2CCC(N(C)CCN3CCOCC3)CC2)cc1Cl` reads 15
# For Biofilm kill mix, `COc1ccc(NC(=O)C(CC(=O)O)Cc2ccc(C)cc2)cc1` (stereo not drawn) reads 47
# For Biofilm kill mix, `Cc1nc(C(Cl)(Cl)Cl)nc2[nH]ccc(=O)c12` reads -7
# For Biofilm kill mix, `Cc1cc(/C=N/NC(=O)c2cccnc2)c(C)n1CC(C)C` reads 14
# For Biofilm kill mix, `O=C(Cn1cc(C(F)(F)F)ccc1=O)Nc1cccc(S(=O)(=O)N2CCOCC2)c1` reads 17
# For Biofilm kill mix, `COc1ccc(/C=N/NC(=O)c2ccc(N(C)S(=O)(=O)c3ccccc3)cc2)cc1` reads -5
# For Biofilm kill mix, `CCN(CC)CCCN(Cc1cc2cc(OC)ccc2[nH]c1=O)C(=O)Nc1ccccc1` reads 9

# The list continues.
smiles	Biofilm kill mix
Nc1nc(SCc2ccc(Cl)cc2Cl)nc2nc3c(cc12)CCCC3	-8
Cc1cc(C)cc(NC(=O)CSc2nc3c(c(=O)[nH]2)CN(Cc2ccc(F)cc2)CC3)c1	7
O=C(Cc1ccc(F)cc1)NCc1cccnc1	6
Cc1ccc(NC(=O)c2nc3nccc(C)n3n2)c(C)c1	14
CCOC(=O)c1c(NCc2ccccc2)n[nH]c1C	9
CCOc1ccc(NCC(=O)N/N=C/C=C/c2ccccc2)cc1	15
N/C(CS(=O)(=O)c1ccccn1)=N\OC(=O)c1ccccc1Cl	13
COC(=O)[C@@]1(Cc2ccc(OC)cc2)[C@H]2c3cc(C(=O)N(C)C)n(CCSCCO)c3C[C@H]2CN1C(=O)c1ccccc1	19
O=c1ccc(-c2nc3cc(Cl)ccc3n2Cc2ccccc2)c[nH]1	12
O=C(CCCN1C(=O)c2cccc3cccc(c23)C1=O)NCc1cccs1	15
NS(=O)(=O)c1cccc(NC(=O)/C=C/c2cccs2)c1	12
Cn1cnc([N+](=O)[O-])c1Sc1n[nH]c(N)n1	6
Nc1ccc2nc(CCCCCCCCc3nc4ccc(N)cc4[nH]3)[nH]c2c1	12
CCC1(c2ccccc2)NC(=S)N(c2ccc(C)cc2)N1 (stereo not drawn)	23
Cc1nc(NCc2cccnc2)c2c3c(sc2n1)CC(C)CC3 (stereo not drawn)	1
COc1c(O)ccc2c1CN1CCc3cc4c(cc3C1C2)OCO4 (stereo not drawn)	12
O=C(OCc1ccccc1)C1=NNC2C(=O)N(c3ccc(Br)cc3)C(=O)C12 (stereo not drawn)	10
CN(C)S(=O)(=O)c1cccc(NC(=S)N(CCC#N)Cc2cccnc2)c1	14
NC(=O)C1CCN(C2=C(NS(=O)(=O)c3ccccc3)C(=O)c3ccccc3C2=O)CC1	16
Cc1cc(C)n2nc(C(=O)Nc3ccc4c(c3)CCC4)nc2n1	8
CCN(CC)CCCSc1nc2ccccc2s1	5
CC(C)CC(=O)Nc1ccc(-c2nnn(CC(=O)NCc3ccco3)n2)cc1	15
CNC(=S)N(Cc1ccco1)Cc1cc2cc(OC)c(OC)cc2[nH]c1=O	6
CCOC(=O)c1c(-c2cccs2)csc1N	24
CCOc1ccc(NC(=O)N2CCN(Cc3ccc4c(c3)OCO4)CC2)cc1	11
CC(=O)c1ccccc1NC(=O)COC(=O)c1ccc2c(c1)nc(C)n2-c1ccccc1	14
CC(C)(C)NC(=O)C(OC(=O)c1cccs1)c1ccc(C#N)cc1 (stereo not drawn)	8
Cc1noc(C)c1CS(=O)(=O)Cc1ccc(Cl)cc1	8
O=C1C=CCC(/C=C/c2ccccc2)O1 (stereo not drawn)	13
CCN(CC)c1ccc(N2C(=O)C3CCCCC3C2=O)cc1[N+](=O)[O-] (stereo not drawn)	19
COc1ccc(OC)c(Nc2nnc(C)c(=O)[nH]2)c1	8
O=C(CSCC(=O)NC1CC1)Nc1ccc2ccccc2c1	9
COc1ccc(CCc2nnc(CCC(=O)NCc3cc(C(C)C)no3)o2)cc1	26
O=C(CCS(=O)(=O)c1ccc(Br)cc1)Nc1ccc(Cl)cc1F	13
O=C1c2nc3cc(-c4ccco4)[nH]n3c(=O)c2CN1Cc1ccccc1	24
Nc1c2c3c(sc2nc(=O)n1N)CCCC3	28
COC(=O)c1cc(C(C)=O)c(C)[nH]c1=O	2
O=C(NN=C(Cc1ccccc1)Cc1ccccc1)c1ccncc1	22
CC(C)(C)SCCNC(=O)CN(c1ccc(F)cc1)S(=O)(=O)c1ccccc1	8
CC(C)(C)C1CCC2(CC1)CC(=O)c1ccccc1O2 (stereo not drawn)	22
COc1cccc(/C=N/NC(=O)CNC(=O)C2COc3ccccc3O2)c1O (stereo not drawn)	17
N#C/C(=N/Nc1ccc(OC(F)(F)F)cc1)C(N)=S	9
COc1ccc(CC(=O)O/N=C(\N)c2ccccn2)cc1	11
CCN(C(=O)CSc1nnnn1-c1ccccc1)C1CCS(=O)(=O)C1 (stereo not drawn)	11
C/C(CC(=O)Nc1ccc(F)cc1)=N\NC(=O)Cc1csc(N)n1	17
CC(=O)Nc1cccc(NS(=O)(=O)c2ccccc2[N+](=O)[O-])c1	18
O=C(Nc1cccc(F)c1)c1cc(S(=O)(=O)N2CCOCC2)cs1	5
O=C(NCc1ccccn1)Nc1ccccc1	2
CCCn1c(C(O)c2ccc(OC)cc2)nc2ccccc21 (stereo not drawn)	17
COc1ccc(C(=O)NNC(=O)CN2CCC(n3nnc4cc(F)ccc43)CC2)cc1	-3
Cc1c(C=O)c(=O)n(-c2ccccc2)n1-c1ccccc1	4
Cc1ccc(NC2OC(CO)C(O)C2O)cc1[N+](=O)[O-] (stereo not drawn)	15
Cc1ccccc1-n1c(-c2ccc(=O)[nH]n2)n[nH]c1=S	28
COc1ccc(-c2nnc(SCC(=O)Nc3sc4c(c3C#N)CCCC4)n2-c2ccccc2)cc1	4
CC(=O)Nc1ccc(N(C(=O)Cn2nnc3ccccc32)C(C(=O)NC2CCCC2)c2ccc(O)c(O)c2)cc1 (stereo not drawn)	12
CC(Oc1ccc(Br)cc1)C(=O)Nc1ccncc1 (stereo not drawn)	11

# Next section
smiles	Biofilm kill mix
COc1ccc2nc(/C=N/NC(=O)[C@H](C)NC(=O)OC(C)(C)C)ccc2c1	7
CC(C)Oc1ccccc1OCCCOc1cccc2cccnc12	17
N#CCCN(CCC#N)S(=O)(=O)c1ccc(C(=O)Nc2nc(-c3ccccc3)c(C(=O)c3ccccc3)s2)cc1	1
O=C(Cc1ccc(Br)cc1)Nc1nc2ccccc2[nH]1	10
COc1ccc(C2CC2/C(=N/O)c2ccccc2)cc1 (stereo not drawn)	16
O=C(Nc1ccc(Cl)c(Cl)c1)c1ccc(Cl)c(Cl)c1	6
COc1ccc(C(=O)Oc2cccc(Nc3ncnc4ccccc34)c2)cc1OC	10
COc1ccc2nc(C)c(C(=O)NN)cc2c1	4
O=C(CSc1ccc(-c2ccncc2)nn1)c1ccc(Cl)cc1	11
Nc1ccc(C(=O)c2cccs2)cc1[N+](=O)[O-]	14
COc1cc(/C=C(\C#N)c2nc3ccccc3[nH]2)ccc1OC(=O)c1ccco1	17
O=C(NCc1cccs1)C(=O)c1cn(CC(=O)N2CCCC2)c2ccccc12	20
O=C(Nc1cccc(Cl)c1)c1cccc(Oc2ccc([N+](=O)[O-])cc2Cl)c1	11
Nc1nnc(CSCc2ccccc2Cl)s1	15
Cc1ccc(NS(=O)(=O)c2ccc(Br)s2)nc1	13
COc1cccc(NC(=O)C(c2ccccc2)N2CCCCC2)c1 (stereo not drawn)	11
Cc1cc(C)cc(OCC(=O)N(Cc2ccc(N(C)C)cc2)C2CCS(=O)(=O)C2)c1 (stereo not drawn)	7
NC(=S)n1[nH]c(-c2ccc([N+](=O)[O-])cc2)c(N=Nc2cccc(Cl)c2)c1=O	23
CC(CCc1ccccc1)NC(=O)CN1CCN(c2ccccc2)CC1 (stereo not drawn)	-2
CCN(C(C)=O)c1ccc(Oc2nc(OC)cc(OC)n2)cc1	5
CCC1(C)Cc2nc3[nH]c(=S)n(-c4ccccc4C)c(=O)c3cc2CO1 (stereo not drawn)	14
COc1ccc2c(c1)oc(=O)c1c3ccccc3[nH]c21	1
CCOC(=O)C1CCCN(C(=O)c2cccc(NC(=O)C(CC)CC)c2)C1 (stereo not drawn)	0
CCN(CC)C(=O)Cn1cc(C(=O)C(=O)NCC2COc3ccccc3O2)c2ccccc21 (stereo not drawn)	16
CC(C)NC(=O)COc1cccc2ccccc12	10
CCN(CC)C(=O)C12CC3CC(CC(Cl)(C3)C1)C2	13
O=C(CCC(=O)OCc1ccc([N+](=O)[O-])cc1)Nc1ccccc1Cl	15
O=C1CC(c2ccccc2Oc2cccc(Cl)c2)C(n2cncn2)C(=O)C1C1NCCc2ccccc21 (stereo not drawn)	13
O=C1NC(c2cccc(Br)c2)=N/C1=C\c1ccco1	15
CC(CNC(=O)c1cccs1)c1ccc([N+](=O)[O-])cc1 (stereo not drawn)	25
Cn1c(CCNC(=O)c2cccs2)n[nH]c1=S	18
Oc1ccc(/C=N/Nc2ccc3ccccc3c2)c(O)c1	17
CN(C)S(=O)(=O)c1cccc(-c2cn3cccnc3n2)c1	2
CC1=NN(C(=O)COc2ccccc2C)C(O)(c2ccc(Cl)cc2)C1 (stereo not drawn)	13
Cc1cccc2c(C(=O)O)cc(-c3cccnc3)nc12	5
CCOC(=O)N1CCC(N2CCCC(C(=O)c3cccc(OC(C)C)c3)C2)CC1 (stereo not drawn)	5
O=C1C2C(C(=O)N1c1ccc3c(c1)OCO3)C1C=CC2C12CC2 (stereo not drawn)	17
CCNS(=O)(=O)c1ccc(CCC(=O)Nc2ccccc2)cc1	11
O=C(N/N=C/c1ccc([N+](=O)[O-])cc1)c1c[nH]c2ccccc12	4
COC(=O)c1cc(NC(=O)CN(c2cccc(OC)c2)S(=O)(=O)c2ccccc2)ccc1Cl	19
COc1ccc(N=Cc2c(O)n(-c3ccc(OC)cc3)c(=O)c3ccccc23)cc1	14
COC(=O)c1ccsc1NC(=O)c1ccc2c(c1)OCCO2	3
CCOC(=O)/C(C#N)=C/c1cn(CCOc2ccc(OC)cc2)c2ccccc12	15
O=C(CCl)NC1(C(F)(F)F)C(=O)Nc2c1c(=O)[nH]c(=O)n2-c1ccccc1 (stereo not drawn)	11
COc1ccc(NS(=O)(=O)c2cccc(NC(=O)CNC(C)=O)c2)cc1	8
O=C(CN(Cc1ccccc1)S(=O)(=O)c1ccccc1)N/N=C/c1ccc([N+](=O)[O-])cc1	17
CCCCN(C)CCCNC(=O)c1cc(=O)[nH]c2ccc(S(=O)(=O)N3CCCCC3C)cc12 (stereo not drawn)	13
C=CCn1c(SCC(=O)c2c(N)n(CCC)c(=O)n(C)c2=O)nnc1-c1ccncc1	15

# Screening data deposited in PubChem BioAssay by PCMD.
